# Assay outcomes as filed in PubChem.
# MT1-MMP promoter – inhibitors of MT1-MMP promoter transcription, cell-based, luciferase reporter, luminescence (AID 618) | MT1-MMP promoter luciferase reporter cells, luminescence | calls from a first round at 10 µM; hits with a dose series show EC50 in µM | hit rate 0.62% among 87,000;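 active means over half of the reporter light lost at 10 µM or EC50 under 50 µM; inactive means the rest and hits that failed the dose series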;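 further: actives suppress MT1-MMP promoter-driven transcription so potencies describe inhibitors; HT1080 fibrosarcoma cells; overnight exposure; toxic or luciferase-blocking compounds were not removed from the actives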
# WNV protease inh – blocks West Nile virus NS2B-NS3 protease activity | WNV NS2B-NS3 protease, fluorogenic substrate Ex360/Em465; active compounds read low | z-score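 (tested at a level between 10 and 100 µM)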 | hit rate 0.18% among 65,000 | AID 577;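 active means z-score at -3 or under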;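 further: score is relative to mean and spread of the compound wells of a plate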
# Target sequence (P06935 1371-1501 limits assumed): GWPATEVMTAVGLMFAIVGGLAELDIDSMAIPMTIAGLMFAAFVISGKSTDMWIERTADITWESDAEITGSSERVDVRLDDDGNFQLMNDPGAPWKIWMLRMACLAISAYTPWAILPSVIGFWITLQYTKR
# Target sequence (P06935 1502-1679 limits assumed): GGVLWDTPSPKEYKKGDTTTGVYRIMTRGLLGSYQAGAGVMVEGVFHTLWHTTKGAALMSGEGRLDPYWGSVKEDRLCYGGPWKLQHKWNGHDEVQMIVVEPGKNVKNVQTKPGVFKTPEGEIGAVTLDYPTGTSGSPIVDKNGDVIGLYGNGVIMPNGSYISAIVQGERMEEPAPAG
# Hsc70 – small molecules displacing fluorescent ligand from Hsc70 – biochemical, fluorescence polarization, primary screen (AID 568) | Hsc70 fluorescence polarization, probe displacement; higher % means a stronger effect; strong numbers were not always called active | displacement, % at 20 µM, or IC50 in µM where a hit was titrated | 83,000 tested, under 10 active;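 active means displacement above 50% without optical interference and an IC50 on retest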;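 further: ATPase domain with a fluorescein-tagged ATP probe; 0% = vehicle and 100% = excess ADP; read after one hour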
# Active calls of the source: *; i = inactive; . = no result given. A portion of the library; count on the stated rates, not on these rows.
SMILES,MT1-MMP promoter,WNV protease inh,Hsc70
Nc1nc(SCC(=O)c2ccc(Oc3ccccc3)cc2)n[nH]1,i,-0.42,0.0%
CCN1CCc2c(C#N)c(NCc3ccccc3)nc(NCCO)c2C1,i,-0.96,9.8%
COC(=O)N1CC(c2ccccc2)CC1=O (stereo not given),i,-0.12,-0.1%
O=C(CN1CCN(c2ccc(F)cc2)CC1)Nc1cccc(C(F)(F)F)c1,i,1.39,-0.3%
CCc1nc(SCCO)c2oc3ccccc3c2n1,i,1.97,-6.4%
Cc1cccc(Cn2c(=O)c3c(nc4n3CCN4Cc3ccco3)n(C)c2=O)c1,i,1.09,-0.3%
CCOc1cc2[nH]c(=O)n(CC3CCC(C(=O)NCCCOC)CC3)c(=O)c2cc1OCC (stereo not given),i,1.34,-10.4%
Cc1ccc(C2=CC(c3ccc(N(C)C)cc3)n3nnnc3N2)cc1 (stereo not given),i,-0.11,-24.0%
Cc1nn(C)c(C)c1S(=O)(=O)N(CC(=O)Nc1nccs1)c1ccc(C(C)C)cc1,i,2.03,3.8%
Cc1c(C(=O)NCc2cccnc2)oc2ccc(S(=O)(=O)N3CCCCCC3)cc12,i,-1.4,1.0%
N#Cc1ccc(NC(=O)COC(=O)C2=COCCO2)cc1,i,1.2,6.6%
OC1CC(c2ccco2)NC2(CCCCC2)C1 (stereo not given),i,-0.12,3.3%
CSc1nnc(Cn2c(=O)sc3ccccc32)n1-c1cccc(Cl)c1,i,-0.01,-2.3%
CN1CCN(CC(=O)N(C)c2nc(-c3ccccc3)cs2)CC1,i,1.49,-4.9%
Cc1cc(NC(=O)CSc2nc(C3CC3)nc3sc4c(c23)CCC(C)C4)no1 (stereo not given),i,0.65,-0.1%
CC(C)(C)NC(=O)CSc1nnc(CN2CCCCCC2=O)n1-c1ccccn1,i,-0.29,-2.2%
Cc1ncc(CO)c2c1OC(C)(C)OC2,i,0.00491,-4.1%
C=CCn1c(SCC(=O)Nc2ccc3c(c2)OCO3)nnc1-c1cc(Br)ccc1O,i,-0.11,3.0%
CC(C)CCn1c(=S)[nH]c2ncccc2c1=O,i,1.2,3.8%
COn1c(=O)c(-c2ccc(Cl)cc2)[n+]([O-])c2ccccc21,i,-0.76,-4.2%
COc1cccc(-c2nc(N3CCC(C)CC3)c3ccccc3n2)c1O,i,0.22,-4.7%
Cc1cc(=O)oc2cc3c(cc12)OCCN3,i,10.2,-0.4%
O=C(c1ccccc1)N1CCN(CC2CC=CCC2)CC1 (stereo not given),i,-0.26,2.4%
O=C(c1cc2ccccc2cc1OCC(O)CN1CCCCC1)N1CCCCC1 (stereo not given),i,0.47,1.6%
O=C(Nc1nccs1)C1CCN(S(=O)(=O)c2cccnc2)CC1,i,0.5,10.6%
Brc1c(OCCOCCn2cncn2)ccc2ccccc12,i,-0.18,-3.4%
COc1cc(NC(=O)Cn2c(-c3cncs3)nc3ccccc32)cc(OC)c1OC,i,-1.01,0.1%
COc1cc(/C=N\n2nnnc2N)ccc1OCc1ccc(F)cc1,i,-0.62,-1.7%
Cc1ccc(OCC(=O)N(Cc2ccc(N(C)C)cc2)C2CCS(=O)(=O)C2)cc1 (stereo not given),i,0.1,-4.6%
Cc1cc(C)cc(OCC(=O)Nc2cccc(C(=O)O)c2)c1,i,.,-1.9%
COc1ccccc1N(CN1CCCC1=O)C(=O)c1ccccc1F,i,-0.67,3.1%
Cc1ccc(C)c(-n2c(SCC(=O)Nc3nonc3C)nnc2-c2ccoc2C)c1,i,1.08,-2.2%
COc1ccc2nc(NC(=O)CSc3ccccc3)sc2c1,i,.,-3.2%
Cc1nc2ccccc2n1-c1ccccc1,i,-1.33,5.7%
O=C(Nc1nnc(SCC(=O)N2CCCCC2)s1)C1CCCCC1,i,0.34,6.2%
O=C(CN1C(=O)CCC1=O)Nc1ccc(S(=O)(=O)N2CCOCC2)cc1,i,-0.19,1.0%
Cc1ccc(-c2noc(C3CCCN(S(=O)(=O)c4ccc(S(=O)(=O)N(C)C)cc4)C3)n2)o1 (stereo not given),i,.,2.8%
OC(Cn1cncn1)c1ccc(Cl)cc1Cl (stereo not given),i,-0.34,-0.2%
CCOc1ccc(-c2nc(-c3cccnc3)no2)cc1OCC,i,.,5.0%
CC(C(=O)O)N1C(=O)CSc2ncccc21 (stereo not given),i,-1.84,-3.0%
COc1cc(NC(=O)C2CC(=O)NC3=C2C(=O)CC(C)(C)C3)c(OC)cc1Cl (stereo not given),i,0.06,-4.8%
COc1ccc(-c2nnc3sc(-c4c(OC)cccc4OC)nn23)cc1,i,-0.09,-7.2%
CCCNS(=O)(=O)c1ccc(CCC(=O)NCC2CCCO2)cc1 (stereo not given),i,-0.22,3.8%
CC1Cc2ccccc2N1C(=O)CCN1C(=O)C2C3C=CC(C3)C2C1=O (stereo not given),i,-0.66,-1.4%
COc1ccc(S(=O)(=O)N(CC(=O)Nc2cccnc2)c2ccccc2OC)cc1,i,.,-2.2%
CC(=O)Nc1ccc(S(=O)(=O)N2CCN(C(=O)CCC3CCCC3)CC2)cc1,i,0.67,0.1%
COc1ccccc1NS(=O)(=O)c1ccc(C)c(C(N)=O)c1,i,-0.15,-1.9%
COCCn1nnnc1CN(CCCN1CCOCC1)Cc1cc2c(C)ccc(C)c2[nH]c1=O,i,0.36,1.7%
O=c1ccc(-c2ccccc2)n[nH]1,i,.,-0.4%
CCOC(=O)c1cnc(-n2nc(C)cc2C)nc1-n1nc(C)cc1C,i,0.5,-2.0%
# Other results
SMILES,MT1-MMP promoter,WNV protease inh,Hsc70
Cc1ccccc1NC(=O)CSc1nc2c(c(-c3ccco3)c1C#N)CCCC2,i,-0.00551,-15.5%
COc1ccc(C(CC(=O)O)NC(=O)COc2ccccc2OC)cc1OC (stereo not given),i,1.23,-0.6%
COc1ccc2[nH]c(=O)c(CN(Cc3ccccc3OC)Cc3nnnn3CC3CCCO3)cc2c1 (stereo not given),i,1.02,-0.7%
CC(C)n1c(Nc2ccccc2)nc2ccccc21,i,0.38,7.4%
Cc1ccc(-n2c(C)cc(C(=O)OCC(=O)N(CC(C)C)C3CCS(=O)(=O)C3)c2C)cc1 (stereo not given),i,0.93,2.7%
CCOc1ccc(Cn2c(SCCCCC#N)nc3c2c(=O)n(C)c(=O)n3C)cc1OCC,i,-0.6,1.4%
CSc1nc(N(CCO)CCO)c2sc3nc(-c4ccco4)c4c(c3c2n1)CCC4,i,-0.19,-23.8%
COC(=O)COc1ccc(S(=O)(=O)N2CCN(c3ccccc3F)CC2)cc1,i,-0.4,-1.7%
Cc1ccc(N2CC(C(=O)Nc3ccc(S(=O)(=O)N4CCCC4)cc3)CC2=O)cc1 (stereo not given),i,-0.4,3.0%
CCOC(=O)N1CCN(Cc2nc(N)nc(Nc3ccc(Oc4ccccc4)cc3)n2)CC1,i,-0.27,-2.3%
COc1cc2c(C(=O)NCc3ccc4c(c3)OCO4)cn(CC(C)C)c(=O)c2cc1OC,i,0.17,-0.3%
O=C1C=C(c2ccccc2)OC(=O)C1C(=O)c1ccccc1 (stereo not given),i,.,-1.8%
O=S1(=O)C=C(Oc2ccc3ccccc3c2)c2ccccc21,i,.,5.1%
COCCn1c(SCC(=O)c2ccc(CNC(C)=O)o2)nc2ccccc2c1=O,i,0.31,1.2%
COc1ccc(CC(=O)Nc2cccc(C(=O)O)c2C)cc1,i,-0.74,-1.3%
O=C(NCc1ccco1)c1nc(-c2ccccc2)n(-c2ccccc2)n1,i,0.56,5.3%
Cc1nc(SCC(=O)Nc2c(C)n(C)n(-c3ccccc3)c2=O)nc(C)c1C,i,.,0.7%
Cc1ccnc(N2CCC(C(=O)NCc3ccc4c(c3)OCO4)CC2)n1,i,1.82,4.2%
CCOC(=O)c1[nH]c(C)c(C(=O)Nc2ccccc2F)c1C,i,-1.01,-2.3%
Cc1noc(NS(=O)(=O)c2ccc(NC(=O)COc3ccccc3)cc2)c1C,i,-0.83,2.2%
O=C1c2ccccc2C(=O)N1Cc1nc2ccccc2c(=O)n1Cc1ccco1,i,0.44,-11.6%
O=C(NCCN1CCN(c2ccccc2)CC1)C1CCCN(S(=O)(=O)c2cnc[nH]2)C1 (stereo not given),i,-0.73,-5.8%
FC(F)(F)c1cc(-c2cccs2)nc(NCc2ccco2)n1,i,1.32,0.3%
O=C(NC1CCCC1)C(c1ccccn1)N(C(=O)c1csnn1)C1CCCC1 (stereo not given),i,.,1.5%
CCN1CCCC1CNC(=O)c1ccc2c(=O)n(CCOC)c(=O)[nH]c2c1 (stereo not given),i,-0.67,-6.4%
c1ccc(-c2nc3ccccc3nc2-c2ccccn2)nc1,i,0.73,7.0%
Nc1ccccc1S(=O)(=O)c1ccccc1N,i,0.75,-7.4%
Cc1cc(C(=O)OCC(=O)c2c(N)n(C)c(=O)n(C)c2=O)c(C)n1-c1ccccc1,i,-0.17,-5.8%
CC1(C)N=C(N)NC(Nc2ccccc2)=N1,i,.,-1.2%
Cc1cc(C)n2nc(SCc3cc(=O)n4c(C)cccc4n3)nc2n1,i,-0.93,-6.0%
CCNc1nc2c(c(=O)[nH]c(=O)n2C)n1CC(C)C,i,-1.4,-3.2%
O=C(O)C1CCCCC1C(=O)NCc1ccccc1 (stereo not given),i,.,0.6%
N#CCCN1CCN(S(=O)(=O)c2ccc(S(=O)(=O)NCc3ccccc3)cc2)CC1,i,0.57,0.2%
CCN(CCCNC(=O)CN1C(=O)COc2ccccc21)c1ccccc1,i,-1.38,-0.6%
Cc1cccc(-n2ncc3c(Nc4c(C)n(C)n(-c5ccccc5)c4=O)ncnc32)c1,i,0.99,1.1%
O=C(NCc1ccccc1)N1CCN(c2ccc(F)cc2)CC1,i,.,-4.5%
O=c1[nH]c2ccccc2n1C1=CCCC1,i,-0.75,0.2%
Cc1cc(C)c(NC(=O)c2ccc(S(=O)(=O)N(C)C)cc2)c(C)n1,i,-1.21,-3.3%
Cc1ccc(C)c(C(=O)NC2CC(C)(C)NC(C)(C)C2)c1,i,0.15,3.0%
CCOC(=O)c1c(C)n(OCc2ccccc2)c2ccc3c(no[n+]3[O-])c12,i,-0.16,10.2%
CCn1ccnc1C(O)c1ccc(N(C)C)cc1 (stereo not given),i,-0.33,-1.5%
CC(C)c1nc(SCC(=O)Nc2ccc3c(c2)OCO3)n[nH]1,i,.,5.4%
CCOC(=O)NC(=O)CSc1nc2ccc(OCC)cc2[nH]1,i,-0.08,-2.3%
Cc1nc2ccc(N3C(=O)CCC3=O)cc2[nH]1,i,-0.91,3.2%
COC(=O)c1ccc(OCC(O)CN2C(=O)NC(C)(C)C2=O)cc1 (stereo not given),i,0.75,3.4%
Cc1nc(SCC(=O)c2c(C)[nH]c3ccccc23)c2c(=O)n(C)c(=O)n(CC(C)C)c2n1,i,-0.06,-15.0%
COc1cccc(OC)c1/C(O)=C(\C#N)c1nc2ccccc2[nH]1,i,-0.28,-6.8%
N#Cc1cc(N)c(Nc2ccccc2)cc1C#N,i,-1.24,0.7%
Cc1ccc(C2c3sc(=O)[nH]c3SC3C(=O)NC(=O)C32)cc1 (stereo not given),i,-0.42,-1.9%
CCCN1Cc2cccc(C(=O)Nc3ccc(CN4CCCC4)cc3)c2C1=O,i,0.11,-11.1%
# Following part:
SMILES,MT1-MMP promoter,WNV protease inh,Hsc70
COc1ccc(C(=O)NC(C)c2nc3ccccc3[nH]2)cc1OC (stereo not given),i,.,-4.3%
Cc1ccc(C)c2[nH]c(=O)c(CN(CCN3CCCC3)C(=O)Nc3ccc(F)cc3)cc12,i,-1.18,-0.1%
CN1CCN(S(=O)(=O)c2cccc(C(=O)N(c3ccccn3)C3CCCCC3)c2)CC1,i,0.29,1.9%
Cc1noc(C)c1CSCC(=O)N1CCN(c2ccc(F)cc2)CC1,i,0.27,3.9%
CCC(C)Sc1nc2c([nH]c3ccccc32)c(=O)n1C (stereo not given),i,0.88,0.7%
CCn1c(COc2ccccc2C)nnc1SCC(=O)NCc1ccccc1,i,-0.06,0.2%

# Of the compounds above, these have a furan ring, fused or not.
SMILES,MT1-MMP promoter,WNV protease inh,Hsc70
CCc1nc(SCCO)c2oc3ccccc3c2n1,i,1.97,-6.4%
Cc1cccc(Cn2c(=O)c3c(nc4n3CCN4Cc3ccco3)n(C)c2=O)c1,i,1.09,-0.3%
Cc1c(C(=O)NCc2cccnc2)oc2ccc(S(=O)(=O)N3CCCCCC3)cc12,i,-1.4,1.0%
OC1CC(c2ccco2)NC2(CCCCC2)C1 (stereo not given),i,-0.12,3.3%
Cc1ccc(C)c(-n2c(SCC(=O)Nc3nonc3C)nnc2-c2ccoc2C)c1,i,1.08,-2.2%
Cc1ccc(-c2noc(C3CCCN(S(=O)(=O)c4ccc(S(=O)(=O)N(C)C)cc4)C3)n2)o1 (stereo not given),i,.,2.8%
Cc1ccccc1NC(=O)CSc1nc2c(c(-c3ccco3)c1C#N)CCCC2,i,-0.00551,-15.5%
CSc1nc(N(CCO)CCO)c2sc3nc(-c4ccco4)c4c(c3c2n1)CCC4,i,-0.19,-23.8%
COCCn1c(SCC(=O)c2ccc(CNC(C)=O)o2)nc2ccccc2c1=O,i,0.31,1.2%
O=C(NCc1ccco1)c1nc(-c2ccccc2)n(-c2ccccc2)n1,i,0.56,5.3%
O=C1c2ccccc2C(=O)N1Cc1nc2ccccc2c(=O)n1Cc1ccco1,i,0.44,-11.6%
FC(F)(F)c1cc(-c2cccs2)nc(NCc2ccco2)n1,i,1.32,0.3%
